Screening data: PubChem BioAssay, Broad Institute
MLL AF4-AF9 inh: inhibitors of AF4 peptide binding to AF9, primary screen, biochemical, AlphaScreen, biotin-AF4 peptide, FLAG-AF9, single point; Protein AF-9 (Homo sapiens), P42568; inhibition, % at 10 µM; hit rate 0.47% among 350,000;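 active = every replicate reaching a set inhibition limit, whatever the replicate mean, cut at about 25% in these data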;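 also: 0% = plate neutral control median and 100% = total signal loss; the record names both 10 and 1 µM as test concentration; the first replicate is given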
Target sequence (P42568 whole entry, looked up): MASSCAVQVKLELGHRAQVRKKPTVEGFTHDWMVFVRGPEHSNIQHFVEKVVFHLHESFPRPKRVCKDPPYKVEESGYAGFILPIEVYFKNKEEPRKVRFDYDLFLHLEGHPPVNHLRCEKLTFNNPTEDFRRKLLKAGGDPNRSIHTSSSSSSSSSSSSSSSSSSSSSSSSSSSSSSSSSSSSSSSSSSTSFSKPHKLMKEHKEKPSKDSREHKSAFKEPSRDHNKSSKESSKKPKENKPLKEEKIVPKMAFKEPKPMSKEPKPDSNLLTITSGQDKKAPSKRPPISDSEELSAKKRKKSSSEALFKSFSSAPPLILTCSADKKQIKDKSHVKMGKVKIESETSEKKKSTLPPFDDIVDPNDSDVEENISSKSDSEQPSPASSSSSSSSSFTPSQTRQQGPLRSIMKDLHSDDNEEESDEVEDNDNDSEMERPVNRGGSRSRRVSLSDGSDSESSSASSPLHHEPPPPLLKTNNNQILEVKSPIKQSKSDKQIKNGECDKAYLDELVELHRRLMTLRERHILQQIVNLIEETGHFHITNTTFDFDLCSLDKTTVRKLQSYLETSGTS
FGF22 binding: binders of human FGF22 protein, primary screen, FGF22 synaptogenesis inhibitor project, biophysical, thermal shift, single point | hit rate 1.5% among 340,000 | recombinant FGF22 thermal shift, SYPRO orange fluorescence; percent of sucrose octasulfate shift, DMSO zero | Fibroblast growth factor 22 (Homo sapiens), Q9HCT0 | calls only at 9.99 µM;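 active = melting point raised past a set limit in the mean and every replicate; three in four hits are not shown here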
Target sequence (Q9HCT0 whole entry, looked up): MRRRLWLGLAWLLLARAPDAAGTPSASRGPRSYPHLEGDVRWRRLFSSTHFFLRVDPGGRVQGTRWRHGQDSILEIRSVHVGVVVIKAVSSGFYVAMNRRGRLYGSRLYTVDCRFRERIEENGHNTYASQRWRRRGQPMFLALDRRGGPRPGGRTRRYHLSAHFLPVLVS
* hit, by the source's call; i = inactive. An excerpt; the hit share may differ from the screen's.

structure | FGF22 binding | MLL AF4-AF9 inh
C[C@@H]1CN([C@H](C)CO)C(=O)Cc2cc(NC(=O)Nc3ccc(F)cc3)ccc2O[C@@H]1CN(C)Cc1ccc(C(=O)Nc2ccccc2N)cc1 | i | 1.6
Cc1ccc(S(=O)(=O)N(C)C[C@@H]2OCCCC[C@H](C)Oc3ccc(NC(=O)Nc4c(C)noc4C)cc3C(=O)N([C@H](C)CO)C[C@@H]2C)cc1 | i | 5.4
CO[C@H](CN(C)S(=O)(=O)c1ccc(C)cc1)[C@H](C)CN(Cc1ccccc1Cl)[C@@H](C)CO | i | 1.0
C[C@@H]1CCCCO[C@@H](CN(C)C(=O)c2ccncc2)[C@@H](C)CN([C@H](C)CO)C(=O)c2cc(NS(=O)(=O)c3ccc(F)cc3)ccc2O1 | i | -2.2
COc1cccc(S(=O)(=O)N[C@H]2CC[C@@H](CCNC(=O)Nc3cc(F)ccc3F)O[C@H]2CO)c1 | i | 5.2
COc1ccc(NC(=O)N[C@@H]2CC[C@H](CC(=O)NC3CCC3)O[C@H]2CO)cc1 | i | -1.0
C[C@@H]1CN([C@@H](C)CO)C(=O)c2cc(C#CC3(O)CCCC3)cnc2O[C@H]1CN(C)Cc1cncnc1 | i | -3.2
CCN(C[C@@H]1N[C@H](CO)[C@H]1c1ccc(-c2ccccc2)cc1)C(=O)COC | i | -0.5
COCC(=O)Nc1ccc2c(c1)C(=O)N(C)C[C@H](OC)[C@H](C)CN(C(=O)c1ccccn1)[C@H](C)CO2 | i | 3.3
O=C(Cc1ccccn1)NCC[C@@H]1CC[C@H](NS(=O)(=O)c2ccccc2)[C@H](CO)O1 | i | 0.1
CCCCOCC1CN(CCCC)S(=O)(=O)c2c(NCc3cc(OC)c(OC)c(OC)c3)cccc2O1 (configuration not stated) | i | -3.4
C[C@@H]1CN([C@H](C)CO)C(=O)c2cc(NS(=O)(=O)c3ccccc3)ccc2O[C@@H]1CN(C)C(=O)Nc1cccc2ccccc12 | i | 0.7
CCNC(=O)[C@H]1[C@H](CO)[C@H]2Cn3c(ccc(/C=C/c4ccccc4)c3=O)[C@@H]1N2CC | i | -3.2
COCC(=O)N[C@H]1CC[C@H](CC(=O)N2CCCCC2)O[C@@H]1CO | i | -5.4
C[C@@H]1CN([C@H](C)CO)C(=O)c2cc(C#Cc3ccccn3)cnc2O[C@@H]1CN(C)Cc1cncnc1 | i | -5.5
C[C@@H]1CCCCO[C@H](CN(C)C(=O)c2ccncc2)[C@@H](C)CN([C@@H](C)CO)C(=O)c2cc(NS(C)(=O)=O)ccc2O1 | i | -1.7
COc1ccccc1CNC(=O)C[C@@H]1CC[C@@H](NC(C)=O)[C@H](CO)O1 | i | -8.2
C[C@@H]1CN(S(=O)(=O)C(C)(C)C)[C@H](CCO)/C1=C\CCO | i | -2.0
COc1ccc(CNC(=O)C[C@H]2C=C[C@H](NS(=O)(=O)c3cccc(OC)c3)[C@H](CO)O2)cc1 | i | -3.2
CN1[C@H](C(=O)NCCc2ccccc2)[C@@H](CO)[C@@H]2Cn3c(cccc3=O)[C@@H]21 | i | 1.6
COc1ccccc1-c1ccc([C@@H]2[C@H](CO)N3CCCCN(C(=O)CN4CCOCC4)C[C@@H]23)cc1 | i | 4.1
CN1c2ccc(C3=CCCCC3)cc2[C@H]2[C@H](CCN2S(=O)(=O)c2ccccc2)[C@@H]1CO | i | 8.1
C[C@H](CO)N1C[C@H](C)[C@H](CN(C)C(=O)Nc2ccc3c(c2)OCO3)Oc2c(NC(=O)C3CCCCC3)cccc2C1=O | i | 5.6
O=C(c1ccc(F)cc1)N1CCCCN2[C@@H](CO)[C@H](c3ccc(-c4ccc(F)cc4)cc3)[C@@H]2C1 | i | 2.7

In a second layout: results already given.
Order of values – FGF22 binding, MLL AF4-AF9 inh
- COc1ccccc1CNC(=O)C[C@@H]1CC[C@@H](NC(C)=O)[C@H](CO)O1
→ i, -8.2
- C[C@H](CO)N1C[C@H](C)[C@H](CN(C)C(=O)Nc2ccc3c(c2)OCO3)Oc2c(NC(=O)C3CCCCC3)cccc2C1=O
→ i, 5.6
- CN1c2ccc(C3=CCCCC3)cc2[C@H]2[C@H](CCN2S(=O)(=O)c2ccccc2)[C@@H]1CO
→ i, 8.1
- O=C(c1ccc(F)cc1)N1CCCCN2[C@@H](CO)[C@H](c3ccc(-c4ccc(F)cc4)cc3)[C@@H]2C1
→ i, 2.7

Carrying on.
structure | FGF22 binding | MLL AF4-AF9 inh
C[C@H](CO)N1C[C@H](C)[C@@H](CN(C)C(=O)Nc2ccc(F)cc2)Oc2ccc(NS(=O)(=O)c3cccs3)cc2C1=O | i | -2.4
Cc1ccc(S(=O)(=O)N(C)C[C@@H]2Oc3c(NC(=O)c4cc(C)nn4C)cccc3C(=O)N([C@H](C)CO)C[C@@H]2C)cc1 | i | -13
CN1c2ccc(-c3cccc(F)c3)cc2[C@H]2[C@H](CCN2C(=O)c2ccccc2F)[C@H]1CO | i | 0.7
C[C@@H]1CN([C@H](C)CO)C(=O)c2cccc(NC(=O)NC3CCCCC3)c2O[C@H]1CN(C)Cc1ccc(C(F)(F)F)cc1 | i | 4.6
CCCC(=O)N1CC2(C1)CN(C(=O)C1CCOCC1)[C@H](CO)c1[nH]c3cc(OC)ccc3c12 | i | -3.9
C[C@H](CO)N1C[C@H](C)[C@@H](CN(C)Cc2ccc3c(c2)OCO3)Oc2ncc(Br)cc2C1=O | i | -2.2
C[C@H](O)C#Cc1cnc2c(c1)C(=O)N([C@@H](C)CO)C[C@H](C)[C@H](CN(C)C(=O)CN(C)C)O2 | i | -0.7
CC(C)NC(=O)Nc1cccc2c1O[C@@H](CN(C)CC1CC1)[C@H](C)CN([C@@H](C)CO)C2=O | i | -4.6
COCC(=O)N1CC2(C1)[C@@H](c1ccc(-c3cccc(F)c3)cc1)[C@@H](CO)N2C(=O)C1CC1 | i | 1.1
COc1cccc(CNC(=O)[C@@H]2[C@@H](CO)[C@@H]3Cn4c(ccc(-c5cncnc5)c4=O)[C@@H]3N2C)c1 | i | -2.0
COC(=O)Cn1cnc2c(NC(=O)c3ccccc3)ncnc21 | i | -2.9
C[C@@H]1CN([C@H](C)CO)C(=O)Cc2cc(NC(=O)Nc3cccc4ccccc34)ccc2O[C@H]1CN(C)S(=O)(=O)c1cn(C)cn1 | i | 0.3
COc1ccccc1-c1cnc2c(c1)C(=O)N([C@H](C)CO)C[C@@H](C)[C@@H](CN(C)C(=O)c1cccnc1)O2 | i | -0.1
COc1ccc2c3c([nH]c2c1)[C@H](CO)N(C(=O)NC(C)C)CC31CN(C(=O)c2cccnc2)C1 | i | 0.6
CNC(=O)C[C@H]1CC[C@H]2[C@@H](COc3ccc(NC(=O)Nc4ccc(Cl)cc4)cc3C(=O)N2C)O1 | i | -1.1
O=C(C[C@@H]1CC[C@H](NC(=O)C2CCC2)[C@@H](CO)O1)NCc1ccccc1Cl | i | -1.9
C[C@@H]1CN([C@@H](C)CO)S(=O)(=O)c2ccc(-c3ccncc3)cc2O[C@H]1CN(C)C(=O)Nc1ccc(C(F)(F)F)cc1 | i | -3.2
CC(C)NC(=O)Nc1ccc2c(c1)CC(=O)N([C@@H](C)CO)C[C@H](C)[C@@H](CN(C)Cc1ccc3c(c1)OCO3)O2 | i | -1.2
CCC(=O)N(C)C[C@H]1Oc2cc(-c3cccc(OC)c3)ccc2S(=O)(=O)N([C@H](C)CO)C[C@H]1C | i | -3.3
CCCN1C[C@@H](C)[C@H](OC)CN(C)C(=O)c2ccc(NC(=O)C3CC3)cc2OC[C@@H]1C | i | 0.1
N#C[C@H]1[C@@H](c2ccc(C3=CCCC3)cc2)[C@H](CO)N1C(=O)C1CC1 | i | -2.8
Cc1ccc(-c2ccc3c(c2)O[C@H](CN(C)Cc2cccnc2)[C@H](C)CN([C@@H](C)CO)S3(=O)=O)cc1 | i | 5.5
C[C@H]1CN([C@@H](C)CO)C(=O)c2cccc(NC(=O)C3CC3)c2O[C@@H]1CN(C)Cc1ccc2c(c1)OCO2 | i | -1.3
C[C@@H]1CN([C@@H](C)CO)C(=O)Cc2cc(NS(=O)(=O)c3ccc(Cl)cc3)ccc2O[C@@H]1CN(C)Cc1ccc(C(F)(F)F)cc1 | i | -1.0

2 compounds picked at random from those above, as already listed:
structure | FGF22 binding | MLL AF4-AF9 inh
C[C@H]1CN([C@@H](C)CO)C(=O)c2cccc(NC(=O)C3CC3)c2O[C@@H]1CN(C)Cc1ccc2c(c1)OCO2 | i | -1.3
Cc1ccc(-c2ccc3c(c2)O[C@H](CN(C)Cc2cccnc2)[C@H](C)CN([C@@H](C)CO)S3(=O)=O)cc1 | i | 5.5

Next part:
structure | FGF22 binding | MLL AF4-AF9 inh
COc1ccc(S(=O)(=O)N(C)C[C@H]2Oc3ccc(NC(=O)c4ccncc4)cc3CC(=O)N([C@@H](C)CO)C[C@H]2C)cc1 | i | -0.3
C[C@H](CO)N1C[C@H](C)[C@H](CN(C)S(C)(=O)=O)Oc2c(NC(=O)Nc3ccc(F)cc3)cccc2C1=O | i | -4.9
C[C@@H]1CN([C@H](C)CO)C(=O)Cc2cc(NC(=O)CCCN(C)C)ccc2O[C@@H]1CN(C)S(=O)(=O)c1ccc(Cl)cc1 | i | 1.1
CCNC(=O)C[C@H]1C=C[C@H](NC(=O)C2CCC2)[C@@H](CO)O1 | i | 5.5
COc1ccc(S(=O)(=O)N(C)C[C@@H]2OCCCC[C@@H](C)Oc3ccc(NC(=O)Nc4c(C)noc4C)cc3C(=O)N([C@H](C)CO)C[C@@H]2C)cc1 | i | -1.6
C[C@@H]1CN([C@@H](C)CO)C(=O)c2cc(C#CC3CC3)cnc2O[C@@H]1CN(C)C(=O)c1ccccc1 | i | 0.5
C[C@H](NC(=O)C[C@@H]1CC[C@@H]2[C@H](COC[C@H](O)CN2C(=O)Nc2ccccc2)O1)c1ccccc1 | i | -3.0
CCNC(=O)C[C@H]1CC[C@@H]2[C@@H](COc3ccc(NC(=O)c4ccc(C(F)(F)F)cc4)cc3C(=O)N2C)O1 | i | 1.1
CC(C)NC(=O)N(C)C[C@@H]1Oc2ncc(C#Cc3ccncc3)cc2C(=O)N([C@H](C)CO)C[C@@H]1C | i | -5.7
C[C@H](CO)N1C[C@H](C)[C@@H](CN(C)Cc2ccc(Cl)c(Cl)c2)Oc2ccc(NS(=O)(=O)c3cccs3)cc2CC1=O | i | 5.3
CCC(=O)N(C)C[C@H]1Oc2ncc(C#Cc3ccccc3)cc2C(=O)N([C@@H](C)CO)C[C@H]1C | i | 0.0
O=C(C[C@H]1C=C[C@@H](NS(=O)(=O)c2ccc(F)cc2)[C@H](CO)O1)N1CCc2ccccc2C1 | i | -3.0
C[C@H](NC(=O)C[C@@H]1C[C@@H]2c3cc(NC(=O)NC4CCCCC4)ccc3O[C@@H]2[C@@H](CO)O1)c1ccccc1 | i | 0.5
C[C@H](CO)N1C[C@H](C)[C@H](CN(C)Cc2ccccn2)Oc2ncc(C3=CCCCC3)cc2C1=O | i | 2.5
CC(C)NC(=O)Nc1ccc2c(c1)C(=O)N([C@@H](C)CO)C[C@@H](C)[C@H](CN(C)C(=O)NC1CCCCC1)OCCCC[C@H](C)O2 | i | -2.0
O=C(c1ccc(F)cc1)N1CCCCN2[C@@H](CO)[C@@H](c3ccc(C#CC4(O)CCCC4)cc3)[C@@H]2C1 | i | -2.7
C[C@@H]1CN([C@H](C)CO)C(=O)c2cc(C#CCN(C)C)cnc2O[C@@H]1CN(C)C(=O)CCN1CCCCC1 | i | -4.3
O=C(C[C@@H]1C=C[C@H](NC(=O)C2CCC2)[C@@H](CO)O1)NC1CCCCC1 | i | -10
CO[C@@H]1CN(C)C(=O)c2ccc(NC(=O)c3ccc(F)cc3)cc2OC[C@@H](C)N(C(=O)CC2CC2)C[C@@H]1C | i | -1.8
CN(C)CC(=O)N1[C@@H]2c3ccc(-c4cccc(F)c4)c(=O)n3C[C@@H]2[C@@H](CO)[C@@H]1C(=O)NC1CCC1 | i | -1.2
Cc1ccc(S(=O)(=O)N(C)C[C@@H]2Oc3ccc(NC(=O)NC4CCCCC4)cc3CC(=O)N([C@@H](C)CO)C[C@H]2C)cc1 | i | 0.6
C[C@H]1CN([C@@H](C)CO)C(=O)c2cc(C3=CCCC3)cnc2O[C@@H]1CN(C)C | i | -2.5
O=C(CC1CC1)N[C@H]1CC[C@H](CCNS(=O)(=O)c2ccc(F)cc2)O[C@H]1CO | i | 0.4
C[C@H]1CN([C@@H](C)CO)C(=O)c2cccc(NC(=O)CCCCCC(=O)Nc3ccccc3N)c2O[C@H]1CN(C)S(=O)(=O)c1cccs1 | i | -2.5
CS(=O)(=O)Nc1ccc2c(c1)[C@@H]1C[C@@H](CC(=O)NCc3cccc(F)c3)O[C@@H](CO)[C@@H]1O2 | i | -0.4
COc1ccccc1CNC(=O)C[C@H]1C=C[C@@H](NC(C)=O)[C@H](CO)O1 | i | -1.4
COc1ccc2c3c(n(C)c2c1)[C@@H](CO)N(C(=O)c1ccccn1)CC31CCN(C(C)=O)CC1 | i | -7.0
C[C@@H]1CN([C@H](C)CO)C(=O)Cc2cc(NS(C)(=O)=O)ccc2O[C@H]1CN(C)C(=O)Nc1ccc(C(F)(F)F)cc1 | i | -2.3
O=C(c1ccc(F)cc1)N1CC(=O)N2[C@@H](CO)[C@H](c3ccc(-c4cccnc4)cc3)[C@@H]2C1 | i | -1.0
